RecA splice inh: Mtb RecA intein splicing inhibition; P9WHJ3; cell-free RecA intein splicing, fluorescence; AID 2221; inhibition, %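 (about 9 µM by stock and volumes)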; actives 0.75% (n = 290,000); in the data active means inhibition above about 30%;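 further: 0% = vehicle wells and 100% = reference inhibitor control wells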
Target sequence (P9WHJ3 whole entry, looked up, canonical isoform): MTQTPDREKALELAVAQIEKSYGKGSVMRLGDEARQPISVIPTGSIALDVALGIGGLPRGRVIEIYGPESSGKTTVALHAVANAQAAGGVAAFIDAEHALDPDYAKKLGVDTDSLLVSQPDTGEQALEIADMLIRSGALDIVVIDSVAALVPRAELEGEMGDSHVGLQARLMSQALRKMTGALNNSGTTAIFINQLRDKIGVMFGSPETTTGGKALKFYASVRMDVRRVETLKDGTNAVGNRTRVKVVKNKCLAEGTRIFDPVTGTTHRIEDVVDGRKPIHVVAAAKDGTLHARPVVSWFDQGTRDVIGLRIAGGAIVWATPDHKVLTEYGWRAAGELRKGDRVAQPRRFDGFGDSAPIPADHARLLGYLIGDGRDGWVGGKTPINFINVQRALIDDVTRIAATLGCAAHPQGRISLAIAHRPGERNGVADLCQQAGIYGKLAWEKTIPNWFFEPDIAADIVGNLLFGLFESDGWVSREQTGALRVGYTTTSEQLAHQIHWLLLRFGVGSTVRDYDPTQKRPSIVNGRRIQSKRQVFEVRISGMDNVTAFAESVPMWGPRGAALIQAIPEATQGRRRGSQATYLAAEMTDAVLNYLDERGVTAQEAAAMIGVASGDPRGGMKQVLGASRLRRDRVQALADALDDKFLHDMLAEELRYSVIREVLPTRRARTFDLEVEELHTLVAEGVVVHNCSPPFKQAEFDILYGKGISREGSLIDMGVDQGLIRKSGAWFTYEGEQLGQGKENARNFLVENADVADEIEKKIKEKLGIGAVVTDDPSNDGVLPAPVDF
Arbovirus inh: blocks arbovirus infection; AID 1251; actives 0.37% (n = 200,000); inhibition, % at 10 µM; arbovirus infection cell-based antiviral screen;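 active means inhibition from about 30%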;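 further: bluetongue infection of BSR cells; cell survival read as ATP light after 72 h; 0% = infected wells without compound and 100% = uninfected wells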
Mtb H37Rv: M. tuberculosis H37Rv growth inhibitors, H37Rv strain (AID 1626). M. tuberculosis H37Rv growth inhibition; higher % means a stronger effect. inhibition, % at 10 µM, or IC50 in µM where a hit was titrated. actives 0.95% (n = 220,000);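 active means confirmed in a dose series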;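 further: bacteria incubated seven days before Alamar blue readout; 0% = bacteria only wells and 100% = bacteria with antibiotic wells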
Mtb bLac sens: beta-lactam sensitization of Mtb H37Rv | M. tuberculosis H37Rv growth with meropenem, percent inhibition; hits of this screen are not shown here | inhibition, % at 25 µM | actives 0.27% (n = 330,000) | AID 434955;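 active means about 74% or more and at least 40 points above the plate without the antibiotic, then above 30% in a dose series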;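 further: growth measured after seven days incubation then overnight dye step; 0% = bacteria only wells and 100% = bacteria with antibiotic; twin plates without the antibiotic show which effects depend on it; some results filed as inactive read as strong as hits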
YopH inh: blocks Yersinia enterocolitica YopH tyrosine phosphatase | AID 898 | inhibition, %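 (about 10 µM by stock and volumes)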 | fluorescence Ex485/Em525 | actives 0.16% (n = 140,000);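 active means inhibition of 50% or more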;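 further: controls were vehicle for no effect and minimum signal wells for full effect; inactives centre near -20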
* hit, by the source's call; nt = no result given. An excerpt. The share of hits here may be higher or lower than overall.

(1) CN(C)c1ccc(C(O)P(=O)(OC2CCCCC2)OC2CCCCC2)cc1 (stereo not drawn)
(2) COC(=O)C(Cc1ccccc1)NC(=O)CNC(=O)c1sc2ccccc2c1Cl (stereo not drawn)
(3) CC(C)NC(=O)CSCc1ccccc1Cl
(4) O=C(Nc1ccc2oc(-c3cccnc3)nc2c1)c1ccc(Br)o1
(5) CCCCn1c(N)c(Sc2ccc(C)cc2)c(=O)[nH]c1=O
(6) CC1CCN(c2cc(N3CCN(C(=O)c4ccc(F)c(F)c4)CC3)c([N+](=O)[O-])cc2F)CC1
(7) NC(Cc1ccc2nonc2c1)C(=O)O (stereo not drawn)
(8) O=C(CSc1ccc(-c2ccccn2)nn1)Nc1ccc(F)c(F)c1
compound no.	1	2	3	4	5	6	7	8
RecA splice inh	0.4	-0.2	2.0	-5.1	0.9	7.3	-0.8	-1.1
Arbovirus inh	nt	nt	20	-4	2	3	-3	nt
Mtb H37Rv	2%	nt	-6%	-5%	-6%	22%	-8%	nt
Mtb bLac sens	-7	57	-3	-16	-6	9	5	99
YopH inh	nt	nt	-14	-4	-37	-10	26	nt

(9) CCC1C/C(=C/c2ccco2)C(=O)/C(=C/c2ccco2)C1 (stereo not drawn)
(10) COc1cc(NC(=O)c2cccnc2Sc2ccc(C)c(C)c2)cc(OC)c1OC
(11) CCCCNC(=O)Cn1nc(-c2ccc(C)cc2)ccc1=O
(12) CCN(CCCNC(=O)c1[nH]c(C)c(C(C)=O)c1C)c1ccccc1
(13) Cc1cccc(OCc2ccc(C(=O)Nc3cc(C)on3)o2)c1
(14) CC(C)CC(=O)N1CCC(O)(CS(=O)(=O)c2ccc(Cl)c(Cl)c2)CC1
(15) CN(C(=O)CCc1nnc(Cc2ccc(-c3ccccc3)cc2)o1)C1CCOCC1
(16) COc1ccc(C(C)C)cc1S(=O)(=O)N1CCN(c2ccccc2)CC1
compound no.	9	10	11	12	13	14	15	16
RecA splice inh	nt	4.3	-1.2	-3.8	-0.5	3.7	1.2	18
Arbovirus inh	12	-9	nt	-20	nt	14	9	0
Mtb H37Rv	-4%	-7%	nt	5%	nt	-4%	-13%	6%
Mtb bLac sens	-3	1	8	-12	-7	-4	-12	-4
YopH inh	2	-11	nt	-41	nt	nt	nt	nt

(17) Cc1ccc(CN2CCN(Cc3c(C)nn(C(C)C)c3C)CC2CCO)o1 (stereo not drawn)
(18) Fc1ccc(Cn2ccc(-c3cnc(-c4ccccc4)s3)n2)cc1
(19) CCOC(=O)C1CCN(Cc2ccccc2C)CC1
(20) O=C(Nc1nnc(S(=O)(=O)N2CCCC2)s1)c1ccccc1F
(21) O=C(Cn1c2[n+](c3ccc(C(F)(F)F)cc31)CCCCC2)Nc1c(F)cccc1F
(22) O=C(NCCNC(=O)c1ccccc1O)c1ccccc1O
(23) Cc1nc2ccccn2c1C(=O)N/N=C/c1ccccc1[N+](=O)[O-]
(24) Cc1ccnc(NC2CCCCC2)c1
compound no.	17	18	19	20	21	22	23	24
RecA splice inh	-2.1	0.6	3.6	0.8	0.6	-3.3	-0.8	-0.8
Arbovirus inh	-3	17	21	nt	7	nt	-1	-2
Mtb H37Rv	6%	13%	1%	nt	-4%	nt	-15%	1%
Mtb bLac sens	-4	73	3	-3	6	-4	-2	4
YopH inh	nt	-19	-9	nt	nt	nt	6	nt

(25) CCN1CCN(c2c(S(=O)(=O)c3ccc(C)c(C)c3)cnc3ccc(F)cc23)CC1
(26) CCOc1ccccc1NC(=O)CSc1nnc(C2CC2)n1CC
(27) COc1ccc(OC)c(NC(=O)COC(=O)C2CCN(C(=O)c3ccc(Cl)cc3)CC2)c1
(28) Cc1ccc2nc(NCc3ccccc3)c(C=NCc3ccccc3)c(=O)n2c1
(29) CCOC(=O)C1CCN(C(=O)c2ccc(OC)cc2OC)CC1
(30) CCCC1CCC(=NNC(=S)NCCc2ccccc2)CC1 (stereo not drawn)
(31) CC(C)c1nnc(NC(=O)c2sc3ccccc3c2Cl)s1
(32) COc1ccc(S(N)(=O)=O)cc1C(=O)NCCCN1CCN(c2cccc(Cl)c2)CC1
compound no.	25	26	27	28	29	30	31	32
RecA splice inh	-2.1	-0.3	0.5	-4.3	-1.3	nt	4.4	0.4
Arbovirus inh	nt	nt	5	-4	18	13	-5	-1
Mtb H37Rv	nt	nt	-3%	-3%	3%	-3%	52%	nt
Mtb bLac sens	-4	-3	-4	-1	13	100	87	-8
YopH inh	nt	nt	nt	-25	-4	nt	-160	-32

2 of the compounds above, field by field:
[31] CC(C)c1nnc(NC(=O)c2sc3ccccc3c2Cl)s1
  RecA splice inh: 4.4 | Arbovirus inh: -5 | Mtb H37Rv: 52% | Mtb bLac sens: 87 | YopH inh: -160
[32] COc1ccc(S(N)(=O)=O)cc1C(=O)NCCCN1CCN(c2cccc(Cl)c2)CC1
  RecA splice inh: 0.4 | Arbovirus inh: -1 | Mtb H37Rv: nt | Mtb bLac sens: -8 | YopH inh: -32

Next part:
(33) COc1ccc(/C=C2/SC(=O)N(CCC(=O)Nc3ccccc3)C2=O)cc1OC
(34) C=CCNC(=O)c1cc(=O)c2ccccc2o1
(35) Cc1cc(=O)[nH]c(S)c1C#N
(36) COc1ccc(-n2nc(C(=O)N(C)C3CCCCC3)c3ccccc3c2=O)c(OC)c1
(37) COc1cc(C)ccc1NC(=O)c1ccc(S(=O)(=O)N2CCOCC2)cc1
(38) COc1ccc2[nH]c(=S)[nH]c2c1
(39) Cc1ccc(Nc2nc(-c3cccnc3)cs2)cc1C
(40) CCOc1cccc(-c2cc(=O)[nH][nH]2)c1
compound no.	33	34	35	36	37	38	39	40
RecA splice inh	2.6	-2.1	0.1	-2.0	0.7	9.5	5.8	97*
Arbovirus inh	3	1	nt	nt	6	1	nt	-2
Mtb H37Rv	1%	-10%	-6%	nt	-2%	-8%	nt	-16%
Mtb bLac sens	2	-2	3	-2	-2	-15	10	-17
YopH inh	-21	-22	nt	nt	-23	-50	nt	-29

(41) O=C1OC(c2ccc([N+](=O)[O-])cc2)=N/C1=C/N1CC2CC(C1)c1cccc(=O)n1C2 (stereo not drawn)
(42) COc1cnc(-c2ccccn2)nc1Oc1c(C)cccc1C
(43) CCc1ccc(NC(=O)c2cnn3c(C(F)F)cc(C)nc23)cc1
(44) O=C(Nc1ccncc1)c1cc(-c2ccccn2)nc2ccccc12
(45) COc1ccc(NC(=O)CSc2n[nH]c(=O)n2Cc2ccccc2)cc1Cl
(46) COc1cc(C(C(=O)NC2CCCCC2)N(C(=O)Cc2c[nH]c3ccccc23)c2ccc(C)cc2)cc(OC)c1OC (stereo not drawn)
(47) O=C(O)CCCN1C(=O)/C(=C\C(Cl)=C\c2ccccc2)SC1=S
(48) COCc1ccc(C(=O)N2CCCC(C(=O)c3cccc(C(F)(F)F)c3)C2)o1 (stereo not drawn)
compound no.	41	42	43	44	45	46	47	48
RecA splice inh	-1.5	0.2	0.2	0.8	11	7.5	46*	-1.0
Arbovirus inh	nt	4	-5	-1	nt	-24	nt	1
Mtb H37Rv	1%	5.2µM*	9%	7%	nt	10%	nt	25%
Mtb bLac sens	-1	83	-3	3	4	13	1	-3
YopH inh	nt	nt	nt	nt	nt	-20	nt	nt

(49) CCOCCCn1c(=N)c(S(=O)(=O)c2ccc(C)cc2)cc2c(=O)n3cc(C)ccc3nc21
(50) CCn1nc(C)c(CNC(=O)C2CCC(=O)N(Cc3ccc(Cl)cc3)C2)c1C (stereo not drawn)
(51) CC(C)CNC(=O)c1ccccc1NC(=O)CSCc1ccccc1
(52) O=C1CSC(=S)N1/N=C/c1cccnc1
(53) CCC(C)[C@H](NC(=O)[C@@H]1CSC2c3ccccc3C(=O)N21)C(=O)NCc1ccco1 (stereo partly drawn)
(54) Cc1ccsc1C(=O)NC(C)c1ccccc1 (stereo not drawn)
(55) CCCC(C(=O)Nc1ccncc1)c1ccccc1 (stereo not drawn)
(56) CC(=O)C(C)Oc1ccc2c3c(c(=O)oc2c1C)CCCC3 (stereo not drawn)
compound no.	49	50	51	52	53	54	55	56
RecA splice inh	-220	0.1	-2.4	2.1	3.4	-0.9	0.1	1.4
Arbovirus inh	nt	nt	2	nt	nt	nt	nt	-4
Mtb H37Rv	nt	nt	2%	0%	nt	nt	nt	nt
Mtb bLac sens	-8	-12	-1	1	4	7	0	99
YopH inh	nt	nt	-16	nt	nt	nt	nt	-29

(57) Cc1cc(C)c(OCC(=O)N/N=C/c2ccc3c(c2)OCO3)c(C)c1
(58) COc1ccccc1NC(=O)C(C)OC(=O)Cn1cnc2c1c(=O)n(C)c(=O)n2C (stereo not drawn)
(59) Cc1ccc(S(=O)(=O)N2CCN(C(=O)CCC(=O)NCc3cccc(C(F)(F)F)c3)CC2)cc1
(60) Cc1ccc(CNC(=O)c2ccccc2NC(=O)CN2CC(C)OC(C)C2)cc1 (stereo not drawn)
(61) CC1(C)OC(C(=O)NC2CCCCC2)C(C(=O)NC2CCCCC2)O1 (stereo not drawn)
(62) Cc1ccc([N+](=O)[O-])cc1N(CC(=O)NC1CCCC1)S(C)(=O)=O
(63) COc1ccc(NC(=O)c2cc(-c3ccco3)on2)cc1
(64) CCc1ccc(NC(=O)COC(=O)/C(=C/c2ccccc2OC)c2ccccc2)cc1
compound no.	57	58	59	60	61	62	63	64
RecA splice inh	1.2	10	1.1	0.9	4.5	-1.3	-1.2	3.7
Arbovirus inh	-6	nt	nt	nt	5	-3	-7	6
Mtb H37Rv	5%	nt	nt	nt	nt	1%	8%	7%
Mtb bLac sens	-3	-3	-9	-5	4	-2	5	8
YopH inh	-8	nt	nt	nt	-31	nt	nt	-21

An excerpt from above in order of SMILES length, low to high:
(24) Cc1ccnc(NC2CCCCC2)c1
(29) CCOC(=O)C1CCN(C(=O)c2ccc(OC)cc2OC)CC1
(49) CCOCCCn1c(=N)c(S(=O)(=O)c2ccc(C)cc2)cc2c(=O)n3cc(C)ccc3nc21
(41) O=C1OC(c2ccc([N+](=O)[O-])cc2)=N/C1=C/N1CC2CC(C1)c1cccc(=O)n1C2 (stereo not drawn)
compound no.	24	29	49	41
RecA splice inh	-0.8	-1.3	-220	-1.5
Arbovirus inh	-2	18	nt	nt
Mtb H37Rv	1%	3%	nt	1%
Mtb bLac sens	4	13	-8	-1
YopH inh	nt	-4	nt	nt

Remaining list, next part:
(65) CSc1nc2sc3c(c2c(=O)n1C)CCC(C)C3 (stereo not drawn)
(66) COc1ccc(Nc2ccc(OC)cc2)cc1
(67) CC(=O)Nc1nc2cc3c(cc2s1)OCCO3
(68) COCc1c(C(=O)NC2CCCCCC2)oc2ccccc12
(69) C=CCn1c(C(C)NC(=O)c2ccccc2)n[nH]c1=S (stereo not drawn)
(70) CNC(=S)NNC(=O)c1cccn(Cc2cccc(Cl)c2)c1=O
(71) Cc1ccccc1C(=O)N1CCN(c2ccc(NC(=O)c3cccnc3)cc2)CC1
(72) COc1ccccc1CNC(=O)c1cccc2c1C(=O)N(Cc1cccnc1)C2
compound no.	65	66	67	68	69	70	71	72
RecA splice inh	2.2	51*	-2.7	0.5	-2.9	1.5	19	1.2
Arbovirus inh	-8	nt	nt	-3	3	-4	10	6
Mtb H37Rv	14%	47%	nt	5%	-8%	-3%	0%	5%
Mtb bLac sens	26	9	9	3	8	-2	-2	-13
YopH inh	-5	nt	nt	nt	-20	-44	nt	nt

(73) CCOC(=O)n1cc(C(=O)c2ccccc2O)cn1
(74) COc1ccc(C(=O)/C=C/Nc2ccc(NC(C)=O)cc2)cc1OC
(75) COC(=O)c1[nH]c(C)c(/C(O)=C2\C(=O)C(=O)N(CCN3CCOCC3)C2c2cccs2)c1C (stereo not drawn)
(76) N#CCCSc1nc(N2CCOCC2)c2c(c1C#N)CCCC2
compound no.	73	74	75	76
RecA splice inh	-1.9	-8.6	-2.8	2.4
Arbovirus inh	nt	-12	-14	-7
Mtb H37Rv	nt	1%	-5%	-2%
Mtb bLac sens	0	11	57	3
YopH inh	nt	-21	nt	-7
